# Bioassay records (PubChem BioAssay)
# HTT prom inh = Primary qHTS for Identification of Small Molecule Inhibitors of Huntingtin Promoter Activity | HEK293 HTT promoter firefly luciferase reporter (activity 0% = vehicle and -100% = no light), 24 h | Potency, µM (titrated, usually from 57.5 µM), for inactives: at the highest dose activity change, negative = inhibition, usual class: inhibitors | 0.93% of 48,000 active | AID 1508623, 2021; active means well fitted inhibition curve with a large enough effect; inconclusive means small, poorly fitted or top-dose-only effect; inactive means no such curve, though single readings can be large or run the other way; further: nearly all actives have a fitted effect of over 50% in size
#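 Luminescence was read after Dual-Glo reagent and a 10 min room-temperature incubation. Values were normalized to vehicle (0% activity) and zero RLU (-100% activity). Reporter HEK293 cells had been exposed to compounds (up to 57.5 uM final) for 24 h.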
# PMP22 txn = Cell-based coincidence reporter assay to measure PMP22 gene transcription in S16 Pmp22-F2sN cells - Primary screen. S16 Pmp22-F2sN Schwann cells (luciferase reporters placed in the Pmp22 gene), FLuc/NLuc coincidence luminescence, 24 h. Potency, µM (highest dose often 57.5 µM), for the others: at the highest dose activity change, negative = inhibition, actives largely listed as inhibitors. 2% of 43,000 active; active = clear falling dose curves in both reporters; inconclusive = both reporters move, but less clearly or upward; inactive = either reporter flat; the % is the NLuc reporter signal; further: on the % scale 0 is the no-effect control and ±100 the full control effect; some results filed as inactive show a strong effect at the top dose
#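 Luminescent read-out of sequential FLuc and NLuc signals from a reporter embedded in the Pmp22 3' UTR of S16 Schwann cells, taken after 24 h compound exposure at 37C; compounds reducing both signals score as inhibitors of expression.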
# The depositor's hits bear a star; ? = inconclusive; · = not tested or not shown; [ ] = dose if it differs, or a comment. Potency means the concentration at half of the fitted maximal effect. Some of the compounds tested. The share of hits here may be higher or lower than overall.
SMILES,HTT prom inh,PMP22 txn
O=C(Cn1ncc2c3ccccc3n(Cc3ccccc3)c2c1=O)NCCCN1CCCCC1,9%,-19%
CCn1cc(C(=O)O)c(=O)c2cc3c(cc21)OCO3,2%[25.2 µM],·
O=C(NCc1cccc(Cl)c1)c1cc2c(s1)-c1ccccc1OC2,-5%,-19%
CCN1CCC[C@H]1CNC(=O)c1cc(S(N)(=O)=O)ccc1OC,15%,·
O=S1(=O)c2ccccc2N(Cc2ccccc2F)c2ccccc21,-6%,-7%
Cc1cc(C)c(Cn2c(=O)n(Cc3ccccc3)c(=O)c3c(C)c(C)sc32)c(C)c1,1%,-32%
COc1ccc(-c2nc3cc(NC(=O)COc4ccc(C)c(C)c4)ccc3o2)cc1,54%[activator],-20%
Cc1csc2nc(COc3ccc(NC(=O)C(C)C)cc3)cc(=O)n12,31%[activator],-3%
CN(C)S(=O)(=O)c1ccc2c(c1)c(=O)c(C(=O)N1CCN(c3cccc(Cl)c3)CC1)cn2C,2%,-47%
O=C(CSc1oc(-c2ccc(F)cc2)nc1S(=O)(=O)c1ccccc1)c1ccc(Cl)cc1,?,-15%
COc1ccc(-c2cc(C(=O)Nc3c(C(=O)c4ccc(C)cc4)oc4ccccc34)no2)cc1,7%,-29%
Cc1cc(O)c(C(c2ccccc2)N2CCN(c3ccccc3)CC2)c(=O)n1Cc1ccco1 (configuration not stated),-2%,-17%
CC(=O)Nc1ccc(C)cc1-c1nc2ccccc2n(Cc2cccc(Br)c2)c1=O,0%,-6%
CCN(C(=O)Nc1cn(CC(C)C)c(=O)c2ccccc12)c1cc(C)ccc1C,-21%,5%
COc1ccccc1N1CCN(C(=O)c2cc3ccc4ccc(C)[nH]c4c3n2)CC1,?,?
COc1cccc(CNC(=O)c2cccn2-c2nnc(N3CCCC3)s2)c1,-9%,17%
CC(C)NCC(O)c1ccc2ccccc2c1 (configuration not stated),2%,·
O=C(NCc1ccc2c(c1)CCN2C(=O)c1ccccc1)c1cc2ccccc2[nH]1,?,?
CCOC(=O)/C(C#N)=C/c1ccc(-c2ccccc2)o1,44%[activator],-18%
CS(=O)(=O)N(CC(=O)Nc1ccc(Br)cc1)c1ccccc1Br,-21%,-27%
COc1cc(C)c(Sc2cnc(NC(=O)c3ccc(CNC(C)C(C)(C)C)cc3)s2)cc1C(=O)N1CCN(C(C)=O)CC1 (configuration not stated),-23%,·
COc1cc(NC(=O)CSc2nc(-c3ccccc3)no2)cc(OC)c1,-18%,-25%
CCN(CC)c1ccc2cc(-c3nc(-c4ccccc4F)no3)c(=O)oc2c1,42%[activator],-6%
CCOC(=O)c1c(-c2ccc(C)cc2)csc1NC(=O)c1cc(=O)c2cc(C)cc(C)c2o1,0%,13%
Cc1ccc(-n2nc(C(=O)N3CCN(c4ccccc4F)CC3)c(=O)n(C)c2=O)cc1,-14%,?

# Some values from the results shown:
# Under PMP22 txn, Cc1cc(C)c(Cn2c(=O)n(Cc3ccccc3)c(=O)c3c(C)c(C)sc32)c(C)c1 has the entry -32%
# Under HTT prom inh, COc1ccc(-c2nc3cc(NC(=O)COc4ccc(C)c(C)c4)ccc3o2)cc1 has the entry 54%[activator]
# Under PMP22 txn, CS(=O)(=O)N(CC(=O)Nc1ccc(Br)cc1)c1ccccc1Br has the entry -27%

# Shown with each value named: entries from further up.
molecule: CC(C)NCC(O)c1ccc2ccccc2c1 (configuration not stated)
- HTT prom inh: 2%
- PMP22 txn: ·
molecule: O=C(NCc1ccc2c(c1)CCN2C(=O)c1ccccc1)c1cc2ccccc2[nH]1
- HTT prom inh: ?
- PMP22 txn: ?
molecule: CCOC(=O)/C(C#N)=C/c1ccc(-c2ccccc2)o1
- HTT prom inh: 44%[activator]
- PMP22 txn: -18%
molecule: CS(=O)(=O)N(CC(=O)Nc1ccc(Br)cc1)c1ccccc1Br
- HTT prom inh: -21%
- PMP22 txn: -27%

# (listing goes on)
SMILES,HTT prom inh,PMP22 txn
Cc1c(C(=O)N(C)C)sc2c1c(=O)n(-c1ccc(Cl)c(Cl)c1)c(=O)n2CC(=O)Nc1cccc(C(F)(F)F)c1,-1%,-41%
CCOc1ccc(OCC)c(NC(=O)c2c(C)nn(-c3ccccc3)c2-n2cccc2)c1,-27%,?
COC(=O)c1ccc(NC(=O)c2c(NCc3ccc(C)o3)sc3c2CCCC3)cc1,-30%,?
Cc1cccc(C(=O)N2CCc3cc(CNC(=O)c4cc5ccccc5[nH]4)ccc32)c1,-15%,-5%
COc1ccc([C@@H]2Sc3ccccc3NC(=O)[C@@H]2O)cc1,-22%,·
COc1ccccc1OCCCn1c(-c2ccc(Cl)cc2)nc2ccccc2c1=O,-8%,-1%
COc1ccc(-c2coc3c2c(C)cc2oc(=O)c(C)c(C)c23)cc1,2%,-2%
COc1ccc(OC)c2sc(N3CCN(C(=O)c4ccco4)CC3)nc12,-23%,-9%
Cc1ccc(C(C)(O)c2nc3ccccc3s2)c(C)c1 (configuration not stated),-8%,·
CCC(=O)Nc1ccc(-c2nc3ncccc3o2)cc1C,31%[activator],16%
O=C(NCc1ccc2c(c1)CCN2C(=O)c1ccncc1)c1ccccc1Cl,-7%,-39%
CCn1c(C)c(C)c2cc(C(=O)NCCCN3CCCCC3)ccc21,-5%,-23%
COc1cccc(CN2C(=O)c3ccccc3Sc3ccc(C(=O)NCCc4ccc(Cl)cc4)cc32)c1,-24%,7%
CCc1ccc(NC(=O)N2c3ccccc3Sc3ccccc32)cc1,?,11%
N#Cc1c(-c2ccccc2)cc(-c2ccccc2)nc1SCC(=O)Nc1ccc(Cl)cc1,-7%,?
c1ccc(Cc2nnc(SCc3nc(-c4cccs4)no3)n2-c2ccccc2)cc1,?,?
Cc1cc(C)c(NC(=O)C(C)n2nc(-c3ccc(C)c(C)c3)ccc2=O)c(C)c1 (configuration not stated),-5%,?
Cc1ccc(Cn2c(=O)n(-c3cccc(C(F)(F)F)c3)c(=O)c3c(C)c(C)sc32)c(C)c1,-6%,?
CC(C)Oc1ccc(CNS(=O)(=O)c2csc(C(N)=O)c2)cc1,?,?
N#Cc1c(N)n(-c2cccc(Cl)c2)c2nc3ccccc3nc12,-4%,0%
NCCc1ccn[nH]1,1%,·
CCn1c(SCC(=O)Nc2ccccc2C(=O)OC)nc2ccsc2c1=O,-7%,-34%
COc1cccc(-c2ccc(NC(=O)C3=C(C(=O)O)CCC3)c(F)c2)c1,20%,·
CC(NC(=O)c1ccc2c(c1)sc1nc(-c3ccc(F)cc3)cn12)C12CC3CC(CC(C3)C1)C2 (configuration not stated),7%,-14%
CCCCCOc1ccc(C2c3c(oc4ccccc4c3=O)C(=O)N2c2nc(C)c(C)s2)cc1OCC (configuration not stated),6%,?

# Whole records, quoted from the list. Order of values: HTT prom inh	PMP22 txn
# CC(C)Oc1ccc(CNS(=O)(=O)c2csc(C(N)=O)c2)cc1 in the list: ?	?
# CCCCCOc1ccc(C2c3c(oc4ccccc4c3=O)C(=O)N2c2nc(C)c(C)s2)cc1OCC (configuration not stated) in the list: 6%	?

# New compounds follow.
SMILES,HTT prom inh,PMP22 txn
Cc1cccc(-c2noc(CN(C(=O)COc3ccc(C(C)C)cc3)C(C)C)n2)c1,-26%,?
Cc1cn(C)c(CC(=O)N2CCN(c3cccc(Cl)c3)CC2)c1C(=O)O,-20%,17%
CCc1cnc2c(c1SCC(=O)Nc1ccc(OC)c(OC)c1)c(=O)n(C)c(=O)n2C,-21%,-19%
CCn1nnc2cc(C(=O)Nc3ccc(Cl)cc3C)ccc21,14%,-41%
O=C(Cn1nc(C(F)(F)F)c2c1CCCC2)Nc1ccc(F)c(Cl)c1,?,?
Cc1cc(C)c(NC(=O)Cn2c(=O)n(CCC(C)C)c(=O)c3cccnc32)c(C)c1,7%,-10%
CCc1nnc(NC(=O)CSc2nccn2Cc2ccc(C)cc2)s1,-36%,?
Cc1c(C(=O)NCc2ccccc2)sc2nc3n(c(=O)c12)CCCCC3,35%[activator],-51%
C#C[C@]1(O)CC[C@H]2[C@@H]3CCC4=CC(=O)CC[C@@H]4[C@H]3CC[C@@]21C,7%,·
O=[N+]([O-])c1ccc(O)c2ncccc12,?,·
Cc1ccc(NC(=O)CSc2nc(C3CCCC3)nc3c2c(=O)n(C)c(=O)n3C)c(C)c1,13%,-5%
Cc1nc2nc(NCc3ccc(Cl)cc3)[nH]n2c(=O)c1Cc1ccccc1,-10%,-2%
Nc1ccc(NC(=O)c2cccc(C(=O)Nc3ccc(N)cc3Cl)c2)c(Cl)c1,-21%,?
CSc1nn(Cc2ccc(Br)cc2)c(N(C(C)=O)C(C)=O)c1S(=O)(=O)c1ccccc1,?,?
CCN(CC)S(=O)(=O)c1ccc2c(c1)c(=O)c(C(=O)N1CCN(c3ccc(F)cc3)CC1)cn2C,-10%,-14%

# Among those listed so far, 3 have bromine.
SMILES,HTT prom inh,PMP22 txn
CC(=O)Nc1ccc(C)cc1-c1nc2ccccc2n(Cc2cccc(Br)c2)c1=O,0%,-6%
CS(=O)(=O)N(CC(=O)Nc1ccc(Br)cc1)c1ccccc1Br,-21%,-27%
CSc1nn(Cc2ccc(Br)cc2)c(N(C(C)=O)C(C)=O)c1S(=O)(=O)c1ccccc1,?,?
